RE007 growth inh: qHTS Assay for Inhibitors of the HIV-1 protein Vpr | S. pombe RE007 Vpr strain, BacTiter-Glo ATP luminescence, 24 h; control for the full effect not named in the record | Potency, µM (highest dose often 92.2 µM), for inactives: top-dose activity change, negative = less growth | 360,000 compounds, 0.21% hits; active = well fitted falling curve with a large enough effect; inconclusive = small, poorly fitted or top-dose-only effect; inactive = no such curve, though single readings can be large or run the other way;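 further: on the % scale 0 is the no-effect control and ±100 the full control effect; nearly all actives have a fitted effect of over 50% in size; the assay follows cell death caused by Vpr and the record does not say whether a fall means rescue or toxicity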
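Fission yeast strain RE007, carrying one chromosomally integrated HIV-1 vpr copy, was seeded at OD 0.01 in PMG+AL medium with 23 nL pinned compound. After 24 h at 30 °C and 99% humidity, viability was read by BacTiter-Glo luminescence.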
MARV entry inh: qHTS for inhibitors of binding or entry into cells for Marburg Virus | Marburg virus pseudotyped entry inhibition, cell reporter; control for the full effect not named in the record; about a third of the inactives were read at about 46 µM | Potency, µM (doses to about 37.8 µM), for the others: at the highest dose activity change, negative = inhibition, hits mostly inhibitors | 300,000 compounds, 1.8% hits | AID 540276, 2011; active = well fitted inhibition curve with a large enough effect; inconclusive = small, poorly fitted or top-dose-only effect, or effect the other way; inactive = flat fitted curve, though single readings scatter; tested in HEK293 cells; about a fifth of its hits are not listed in these tables; further: on the % scale 0 is the no-effect control and ±100 the full control effect; luciferase read-out
StopGo reporter: High Throughput Screening for Foot and Mouth Disease Virus Antivirals. human cells with a luciferase reporter of 2A StopGo recoding; control for the full effect not named in the record. Potency, µM (doses to about 57.9 µM), inactives show top-dose signal change, negative = less light. 410,000 compounds, 1.2% hits; active = well fitted falling curve with a large enough effect; inconclusive = small, poorly fitted or top-dose-only effect; inactive = no such curve, though single readings can be large or run the other way; tested in HEK293T cells; further: on the % scale 0 is the no-effect control and ±100 the full control effect; nearly all actives have a fitted effect of over 45% in size; luciferase light after 4 h
SARS PLP yeast: qHTS of Yeast-based Assay for SARS-CoV PLP | S. cerevisiae expressing SARS-CoV PLpro, growth rescue; control for the full effect not named in the record | Potency, µM (top dose mostly 32.9 µM), inactives show at the highest dose activity, positive = growth rescue | 330,000 compounds, 0.19% hits; active means well fitted rising curve with a large enough effect; inconclusive means small, poorly fitted or top-dose-only effect; inactive means no such curve, though single readings can be large or run the other way; further: 0% is about no effect; nearly all actives have a fitted effect of over 55% in size; growth read by luminescence after 48 h
Lassa entry inh: qHTS for Inhibitors of binding or entry into cells for Lassa Virus; 300,000 compounds, 1.2% hits; AID 540256, 2011; Potency, µM (titrated, usually from 37.9 µM), for inactives: at the top dose activity change, negative = inhibition, hits mostly inhibitors; Lassa virus pseudotype entry inhibition, cell reporter; control for the full effect not named in the record; active means well fitted inhibition curve with a large enough effect; inconclusive means small, poorly fitted or top-dose-only effect, or effect the other way; inactive means flat fitted curve, though single readings scatter; tested in HEK293 cells; further: on the % scale 0 is the no-effect control and ±100 the full control effect; nearly all actives have a fitted effect of over 50% in size; luciferase read-out
NS1 inh: qHTS Assay for Inhibitors of Influenza NS1 Protein Function; AID 2326, 2010; Potency, µM (titrated, usually from 46.1 µM), without a hit: at the highest dose activity, positive = more growth; S. cerevisiae slowed by influenza A NS1, growth recovery by OD600; 270,000 compounds, 0.4% hits; active means well fitted rising curve with a large enough effect; inconclusive means small, poorly fitted or top-dose-only effect; inactive means no such curve, though single readings can be large or run the other way; further: nearly all actives have a fitted effect of over 50% in size
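In this qHTS, NS1 from influenza A is expressed in budding yeast, where it slows growth. Cells are switched from glucose to 2% galactose medium (pH 6.0, -URA), treated with compound, and growth recovery is read at OD600.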
Cruzain Triton: qHTS Assay for Promiscuous and Specific Inhibitors of Cruzain (with detergent). 200,000 compounds, 0.43% hits. Cruzipain (Trypanosoma cruzi), P25779. purified cruzain, Z-FR-AMC fluorescence, 0.01% Triton. Potency, µM, without a hit: max response, negative = inhibition, actives largely listed as inhibitors;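 further: plate controls were neutral wells for no effect and buffer without enzyme for full effect; nearly all actives have a fitted effect of over 40% in size; top concentration of the series not given in the record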
Target sequence (P25779 123-467 limits assumed): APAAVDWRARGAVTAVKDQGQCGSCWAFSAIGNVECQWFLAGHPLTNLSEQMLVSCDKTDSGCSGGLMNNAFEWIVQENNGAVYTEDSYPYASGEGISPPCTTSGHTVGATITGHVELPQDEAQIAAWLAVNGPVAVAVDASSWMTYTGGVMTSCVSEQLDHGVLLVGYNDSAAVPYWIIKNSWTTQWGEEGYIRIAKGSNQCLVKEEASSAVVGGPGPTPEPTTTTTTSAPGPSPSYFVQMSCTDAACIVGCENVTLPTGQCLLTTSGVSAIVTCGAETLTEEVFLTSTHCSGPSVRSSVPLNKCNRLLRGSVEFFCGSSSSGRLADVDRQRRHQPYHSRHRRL
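Enzyme 1.5 nM, Z-FR-AMC 2 uM, NaOAc 100 mM pH 5.5, DTT 5 mM, Triton X-100 0.01%; 15 min RT compound preincubation; kinetic ex360/em450, 60 s delta.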
Cruzain noTriton: qHTS Assay for Promiscuous and Specific Inhibitors of Cruzain (without detergent) | Cruzipain (Trypanosoma cruzi), P25779 | purified cruzain, Z-FR-AMC fluorescence, no detergent | 200,000 compounds, 2.3% hits | Potency, µM, inactives show max response, negative = inhibition, most hits filed as inhibitors;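 further: plate controls were enzyme without inhibitor for no effect and buffer without enzyme for full effect; nearly all actives have a fitted effect of over 40% in size; top concentration of the series not given in the record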
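Purified cruzain at 1.5 nM, pre-incubated 15 min with compound at room temperature in 100 mM sodium acetate pH 5.5, 5 mM DTT, 0.00005% Triton X-100. Reaction started with 2 uM Z-FR-AMC; AMC fluorescence increase over 60 s gives rate.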
* = called active by the depositor; ? = inconclusive; / = not tested or not shown; & = joins results of further samples; [ ] = dose if it differs, or a comment. Unless noted, the call rests on the fitted dose curve; in most records, active means well fitted curve in the direction sought with a large enough effect; inconclusive means small, poorly fitted or top-dose-only effect, or another doubt; inactive means no such curve, though single readings can be large; an effect the other way counts as inactive or inconclusive. Potency means the concentration at half of the fitted maximal effect.

Results follow in this order: RE007 growth inh	MARV entry inh	StopGo reporter	SARS PLP yeast	Lassa entry inh	NS1 inh	Cruzain Triton	Cruzain noTriton
- Cc1noc(C)c1CSc1nc2ccccc2n1C
→ -14%	0%	31%[activator]	2%	4%	1%	2.5%	-1%
- O=C(Oc1nsnc1N1CCCCC1)N1CCOCC1
→ -31%	-24%	-10%	5%	3%	2%	-1.8%	-13%
- Cc1cccc(NC(=O)CCN2CCC(C)CC2)c1
→ 2%	?	-18%	2%	-4%	2%	/	/
- O=C1NC(c2ccccc2)=C(c2ccc3ccccc3n2)C(c2ccccc2)N1 (centres undefined)
→ 16%	?	-17%	-23%	?	-17%	-11%	3%
- CCOC(=O)c1cnc2c(N=Nc3ccccc3)c(N)nn2c1N
→ 9%	-15%	31%[activator]	3%	-28%	-5%	4.1%	?
- CCCn1nnc(NC(=O)c2ccc3ccccc3c2)n1
→ 1%	-2%	57%[activator]	3%	-17%	/	/	/
- Cc1ccc(-c2cnc(NC(=O)CCC(=O)N3CCCCC3)n2C)cc1
→ -5%	14%	22%	-10%	-17%	-7%	2.7%	-7%
- Cc1[nH]c2ccccc2c1/C=N/NC(=O)CNC(=O)c1ccco1
→ -5%	-2%	-13%	2%	8%	-2%	/	/
- Cc1c(C2=CCN(S(=O)(=O)c3ccc(CC(C)C)cc3)CC2)c2ccccc2n1CC(=O)N1CCCC1
→ /	-20%[46.1 µM]	0%	/	-22%[46.1 µM]	/	1.9%	18%
- COc1cc(NC(=O)Cn2c(=O)n(Cc3ccco3)c(=O)c3oc4ccccc4c32)cc(OC)c1
→ /	/	-14%	/	8%[46.1 µM]	/	-6.8%	-21%
- COc1cccc(NC(=O)Cn2c(-c3nonc3N)nc3ccccc32)c1
→ /	1%[46.1 µM]	-7%	/	0%[46.1 µM]	/	-2.2%	?
- COc1ccc(C2CC(=O)Oc3c(C(CCN4CCCC(C)C4)c4ccc(N(C)C)cc4)c(OC)cc(OC)c32)cc1 (centres undefined)
→ 13%	/	-30%	2%	/	-34%	/	/
- CC(C(=O)Nc1ccccc1Sc1ccccc1)N(c1ccccc1)S(C)(=O)=O (centres undefined)
→ 16%	2%[46.1 µM]	?	3%	?	19%	-0.4%	16%
- CCCOC(=O)/C=C/c1c(C)[nH]c(=O)[nH]c1=O
→ 18%	1%	?	-1%	10%	12%	-1.7%	4%
- Cc1ccc(C(=O)Nc2ccccc2N2CCN(C(=O)C(C)C)CC2)cc1C
→ 9%	?	-1%	0%	?	-59%	5.8%	15%
- O=S(=O)(Nc1ccc(-c2ccc(N3CCCCC3)nn2)cc1)c1ccc(OC(F)(F)F)cc1
→ /	/	16%	/	7%[46.1 µM]	/	-5.5%	17%
- CSc1cccc(NC(=O)Cn2cccc2)c1
→ 4%	-8%	47%[activator]	-1%	-3%	-19%	-0.8%	5%
- COc1ccc(N2CCN(C(=O)COC(=O)c3oc4ccc(OC)cc4c3C)CC2)cc1
→ ?	6%	-21%	?	6%	/	/	/
- C/C(=N\Nc1ccccc1)c1c(O)n(C)c(=O)n(C)c1=O
→ 126%	?	0%	-14%	-3%	6%	-5.9%	-2%
- Fc1ccc(Nc2nc3ccccc3n3cnnc23)c(F)c1
→ /	-2%[46.1 µM]	-4%	/	/	/	-4.2%	16%
- CCCCOC(=O)c1ccc(NC(=O)COC(=O)C2CSC3(C)CCC(=O)N23)cc1 (centres undefined)
→ 15%	0%	4%	5%	15%	/	/	/
- CC(C)CC(=O)NC(=S)Nc1ccc(CN2CCOCC2)cc1
→ 1%	?	19%	1%	25%[46.1 µM]	4%	/	/
- O=C(c1ccco1)N1CCN(c2c(-c3ccccc3)c3cc(Cl)ccc3[nH]c2=O)CC1
→ -9%	?	/	2%	?	/	-2.8%	?
- O=C(c1ccc2ccccc2n1)N1CCN(c2ccccc2O)CC1
→ -4%	3%	8%	-5%	-21%	-10%	2.8%	3%
- COc1cc(CO)ccc1OCC(=O)Nc1cccc2ccccc12
→ 5%	10%	4%	-3%	-4%	14%	/	/
- CC(NC(=O)c1cc(F)c(F)cc1Cl)C1CC2CCC1C2 (centres undefined)
→ 20%	6%[46.1 µM]	-6%	1%	5%[46.1 µM]	-10%	/	/
- O=C(CO)N/N=C/c1ccccc1F
→ -16%	27%	/	8%	26%	-13%	4.6%	4%
- CCN(CC)c1ccc(/C=N/NC(=O)c2ccoc2C)cc1
→ -26%	?	?	-1%	?	-9%	/	/
- O=C(Cc1cccs1)N/N=C/c1ccc(OCc2ccccc2)cc1
→ -2%	4%	-14%	8%	?	-21%	-9.6%	-1%
- CN(C(=O)COC(=O)c1cc(S(=O)(=O)N(C)C)ccc1Cl)C1CCS(=O)(=O)C1 (centres undefined)
→ 1%	2%	-5%	/	-3%	/	/	/

Complete entries as entered above. Screens in order: RE007 growth inh, MARV entry inh, StopGo reporter, SARS PLP yeast, Lassa entry inh, NS1 inh, Cruzain Triton, Cruzain noTriton
Entry for `Cc1ccc(-c2cnc(NC(=O)CCC(=O)N3CCCCC3)n2C)cc1` = -5%, 14%, 22%, -10%, -17%, -7%, 2.7%, -7%
Entry for `O=C(c1ccco1)N1CCN(c2c(-c3ccccc3)c3cc(Cl)ccc3[nH]c2=O)CC1` = -9%, ?, /, 2%, ?, /, -2.8%, ?
Entry for `CSc1cccc(NC(=O)Cn2cccc2)c1` = 4%, -8%, 47%[activator], -1%, -3%, -19%, -0.8%, 5%
Entry for `COc1ccc(N2CCN(C(=O)COC(=O)c3oc4ccc(OC)cc4c3C)CC2)cc1` = ?, 6%, -21%, ?, 6%, /, /, /

Reformatted as tab-separated lines: entries from further up
smiles	RE007 growth inh	MARV entry inh	StopGo reporter	SARS PLP yeast	Lassa entry inh	NS1 inh	Cruzain Triton	Cruzain noTriton
CC(C)CC(=O)NC(=S)Nc1ccc(CN2CCOCC2)cc1	1%	?	19%	1%	25%[46.1 µM]	4%	/	/
O=C(c1ccco1)N1CCN(c2c(-c3ccccc3)c3cc(Cl)ccc3[nH]c2=O)CC1	-9%	?	/	2%	?	/	-2.8%	?
O=C(c1ccc2ccccc2n1)N1CCN(c2ccccc2O)CC1	-4%	3%	8%	-5%	-21%	-10%	2.8%	3%

(list continues)
Results follow in this order: RE007 growth inh	MARV entry inh	StopGo reporter	SARS PLP yeast	Lassa entry inh	NS1 inh	Cruzain Triton	Cruzain noTriton
- Cc1c(NC(=O)c2n[nH]c(=O)c3ccccc23)c(=O)n(-c2ccccc2)n1C
→ 1%	1%	-5%	1%	8%	0%	1.9%	-1%
- Cc1nn(CC(=O)N2CCN(c3cccc(C(F)(F)F)c3)CC2)c(=O)c2cccn12
→ -11%	?	-21%&-28%	-1%	-2%&7%[46.1 µM]	8%	-4.4%	-2%
- Cc1ccc(-c2nnc(SCC(=O)CC(=O)Nc3ccccc3)n2C)cc1
→ -13%	-11%	9%	?	-2%	?	-1.0%	-14%
- CC(=O)c1ccc(NS(=O)(=O)c2ccc3c(c2)N(C(C)=O)CCO3)cc1
→ 2%	/	38%[activator]	4%	/	5%	/	/
- COc1ccc(CN(Cc2cc3cccc(C)c3n3nnnc23)C(=O)N2CCOCC2)cc1
→ 4%	/	24%	0%	/	2%	/	/
- CN1C(=O)/C(=C/c2ccc3c(c2)OCO3)N=C1c1ccccc1
→ 12%	-15%	18%	11%	1%	11%	-11%	-7%
- COc1ccc(C2c3c(n(C)c4ccccc34)C(=O)N2CC(=O)Nc2cccc(Cl)c2)cc1 (centres undefined)
→ /	/	-13%	/	0%[46.1 µM]	/	-2.8%	?
- CN(C)CCNC(=O)C(=O)NCC(c1ccc2c(c1)OCO2)N1CCOCC1 (centres undefined)
→ /	/	-25%	/	?	/	0.3%	4%
- O=[N+]([O-])c1ccn(-c2nc(-c3ccccc3)cc(C(F)(F)F)n2)n1
→ 5%	-6%[46.1 µM]	0%	1%	7%[46.1 µM]	/	/	/
- COc1ccc(OC)c(Nc2nc(NCCO)c3ccccc3n2)c1
→ 6%	?	-24%	-1%	25%[46.1 µM]	-5%	/	/
- O=C(NNC(=S)Nc1ccc(F)c(Cl)c1)c1ccccc1Br
→ 10%	33%[46.1 µM]	-6%	-2%	-29%[46.1 µM]	-1%	/	/
- Cc1ccc(S(=O)(=O)N2CCN(C(=O)c3ccc(N4CCC(C)CC4)c([N+](=O)[O-])c3)CC2)cc1
→ -4%	?	-11%	/	?	/	/	/
- O=C1[C@@H]2Cc3ccccc3CN2C(=O)N1c1cccc(F)c1
→ 9%	16%	13%	3%	-1%	-6%	2.6%	1%
- C/C(=N\NS(C)(=O)=O)c1ccccc1
→ 2%	10%	3%	19%	3%	11%	5.3%	0%
- COc1ccc(N2CCN(c3oc(/C=C/c4cc(OC)c(OC)c(OC)c4)nc3C#N)CC2)cc1
→ /	11%[46.1 µM]	-11%	/	-17%[46.1 µM]	/	1.1%	?
- COc1ccc(C2C(C(=O)Nc3cccnc3)=C(C)Nc3nc(-c4cccs4)nn32)cc1OC (centres undefined)
→ -2%	/	-8%	-3%	/	-5%	-2.1%	9%
- CCOCc1cc(CN2CCC(n3nccc3NC(=O)C3CC3)CC2)ccc1OC
→ -20%	?	-25%	-1%	11%	-6%	/	/
- COc1ccc(NC(=O)c2cccn2-c2nnc(N3CCCCC3)s2)cc1Cl
→ /	/	12%	/	?	/	1.9%	-1%
- Cc1cc(C(F)F)n2nc(C(=O)Nc3ccc(S(=O)(=O)N4CCCC4)cc3)nc2n1
→ -7%	1%	-17%	7%	16%	-8%	-1.9%	-7%
- CCOC(=O)c1nn(-c2ccccc2)c(=O)c2c(N)scc12
→ -19%	-7%&-7%	-20%	-5%	-22%	7%	-6.6%	-7%
- CC(C)N1CCN(Cc2cccc(-n3cccn3)c2)CC1CCO (centres undefined)
→ -3%	/	-14%	1%	/	-2%	/	/

Bioassay records from PubChem.
